Screening data (PubChem)
NPYLR7 agonist: agonists of mosquito NPYLR7 receptor, primary screen, cell-based, Aedes aegypti, calcium fluorescence, mosquito biting behavior | HEK293T NPYLR7/Galpha15, GCaMP6s calcium fluorescence | activation, % at 10 µM | 270,000 tested, 0.15% active; in the data active means activation above about 40%;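 further: 0% = vehicle and 100% = reference agonist at the receptor; some compounds past the cut are filed as inactive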
NPYLR7 agonist max-min: further read-out of NPYLR7 agonist, marked with its call; activation, %; measured here: Max-Min RFU normalised activation; some inactives read as strong as hits;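 span of the calcium signal over five minutes; 0% = vehicle and 100% = native peptide agonist; compound fluorescence can raise it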
Numbers without * were called inactive.

SMILES	NPYLR7 agonist	NPYLR7 agonist max-min
CC1CCc2sc3ncnc(NCCCN(C)C)c3c2C1 (stereo not drawn)	9	4
CNC(=O)CSc1nc2ccccc2c(=O)n1CCOC	-3	-4
Cc1cc(CNc2nccc(CCC(F)(F)F)n2)n[nH]1	5	4
CCN(Cc1ccncc1)c1nc(C)nc2sccc12	1	3
O=C(NC1CCCC1)c1ccccc1NC(=O)c1ccccc1[N+](=O)[O-]	2	-4
CCOC(=O)N1CCN(c2c(NC3CCCCCCC3)c(=O)c2=O)CC1	6	8
O=C1CN(C(=O)c2ccccc2Oc2ccccc2)CCN1	3	1
CC(C)CC(=O)Nc1ccc(-n2cnc(C(=O)N3CCC4(CC3)OCCO4)c2)nc1	-8	-11
O=C(O)CC12CC3CC(Br)(CC(Br)(C3)C1)C2	-1	-11
Cc1ccc(CC(=O)Nc2cccc(S(=O)(=O)N(C)C)c2)cc1C	9	5
CC(=O)Nc1ccc(NC(=O)Cn2c(-c3nnc(C)o3)cc3ccccc32)cc1	-6	-5
CC(C)C(NC(=O)c1ccc(=O)n(C)n1)c1ccc(C(C)(C)C)cc1 (stereo not drawn)	16	13
C1CSC2(N1)C1CC3CC2CC(C1)C31NCCS1 (stereo not drawn)	2	1
CCc1c(C(=O)N2CCCC(c3nn(C)c(=O)n3CC)C2)csc1C (stereo not drawn)	28	11
CCc1cnc(C)nc1-c1ccc(C(C)N2CCCC2)cc1 (stereo not drawn)	1	3
COc1ccc(-c2cnc3ncnn3c2N2CCN(C(=O)Nc3ccc(C(C)=O)cc3)CC2)cc1OC	13	8
Cn1c(=O)n(CC(O)c2ccccc2)c(=O)c2ccc(C(F)(F)F)nc21 (stereo not drawn)	9	8
Cc1nnc(SCC(=O)N(C)CCC2CCCCO2)s1 (stereo not drawn)	6	4
O=C(Cc1nnc(-c2ccc3ncccc3c2)o1)N1CCN(c2ccccc2F)CC1	-9	-8
CCOc1ccc(-c2nc(CNC(C)COC)cs2)cc1 (stereo not drawn)	-3	-4
N#Cc1ccc(SCC(=O)N2CCN(C(=O)C3CC3)CC2)c(F)c1	10	7
CCOC(=O)C(C)n1ncn2cccc2c1=O (stereo not drawn)	-5	-3
CCc1ccccc1CN1CCCn2cccc2C1c1ccc(F)cc1 (stereo not drawn)	3	17
CCOc1ccc(-n2nc3cc(C)c(NC(=O)c4cncc(Br)c4)cc3n2)cc1	4	6
CC(=O)Nc1ccc(C(=O)Nc2cc(S(=O)(=O)N3CCOCC3)ccc2OC(C)C)s1	-5	-6

Compound profiles, as listed above. Order of values: NPYLR7 agonist	NPYLR7 agonist max-min
CCc1cnc(C)nc1-c1ccc(C(C)N2CCCC2)cc1 (stereo not drawn) across the screens: 1	3
CC(C)C(NC(=O)c1ccc(=O)n(C)n1)c1ccc(C(C)(C)C)cc1 (stereo not drawn) across the screens: 16	13
CCOC(=O)N1CCN(c2c(NC3CCCCCCC3)c(=O)c2=O)CC1 across the screens: 6	8
Cc1cc(CNc2nccc(CCC(F)(F)F)n2)n[nH]1 across the screens: 5	4

More entries:
SMILES	NPYLR7 agonist	NPYLR7 agonist max-min
NC(=S)NN=C1C(=O)c2cccc3cccc1c23	10	9
Cc1ccccc1-n1nnnc1Sc1c(-c2ccccc2)c2ccccc2[nH]c1=O	-5	-8
CCn1c(C)cc(-c2csc(Cn3ccc(=O)[nH]c3=O)n2)c1C	4	2
CC(C)(C)n1nc2c(c1NC(=O)COc1ccccc1)CSC2	-3	-1
CN1CC2(CCCN(CCc3ccccn3)CC2)OC1=O (stereo not drawn)	9	7
O=C(NCC1CCCO1)c1csc(Nc2ccc(OC(F)(F)F)cc2)n1 (stereo not drawn)	6	2
O=C1NC(=O)C2C1C(c1ccc(Cl)cc1)NN2Cc1ccccc1 (stereo not drawn)	19	21
COc1ccccc1-c1cc(C(=O)N2CCN(Cc3ccccc3)CC2)nc2cc(-c3ccc(Cl)cc3)nn12	9	5
CC(C)C(NC(=O)c1nn(C)c2c1CCCC2)c1nnc2n1CCNCC2 (stereo not drawn)	7	3
CC(C)(c1cc(N)on1)S(C)(=O)=O	0	-3
COc1cccc(C=NC=Nc2cccc(OC)c2)c1	9	1
Cc1oc2nc3c(c(=O)n(Cc4ccc(F)cc4)c(=O)n3C)n2c1C	1	9
Cc1nc(C(F)(F)F)nc(-c2ccccc2CO)c1C	-3	-2
CC(C)c1ccccc1OC1CC2CCC(C1)N2C(=O)c1ccc(CSc2ccc([N+](=O)[O-])cn2)cc1 (stereo not drawn)	22	13
Cc1cc(Oc2cnn(-c3cccc(F)c3)c(=O)c2Nc2cccc(C(=O)NCc3ccccn3)c2)ccc1Cl	18	15
COc1ccc(CCc2nnc(CCC(=O)NCc3cnn(-c4ccccc4C)c3)o2)cc1	-1	-4
COCCNc1oc2c(c1-c1ccc(C)cc1)c(=O)oc1c(C)cccc12	-8	-10
Cc1nnc(-c2cccc(-c3cc(N)nc4[nH]ccc34)c2)s1	-1	-3
CCc1cccc2c(C(CC(=O)NCc3ccccn3)c3cccc([N+](=O)[O-])c3)c[nH]c12 (stereo not drawn)	0	5
Cc1ccc2nc(CN(C)C(=O)c3cc(C(C)C)nn3C)[nH]c2c1	-5	-8
CC1CC(C)CN(Cc2nc3c(c(=O)n(C)c(=O)n3C)n2CC(O)CO)C1 (stereo not drawn)	2	7
O=C(Nc1cccc(N2CCOCC2)c1)C(=O)NC1CCc2c(Cl)cccc21 (stereo not drawn)	-4	59
CN1C(=O)[C@H]2CN(C(=O)c3cc(COc4cccc(F)c4)[nH]n3)C[C@H]2C1=O	-3	5
CCc1nc2ccc(C(=O)NCCNC(C)=O)cn2c1N(C)CCC(C)C	-9	-12
CCSCC(=O)N1CCC(n2c(C)nc3cc(C(F)(F)F)ccc32)CC1	6	2

At a glance, 3 of the compounds above:
SMILES	NPYLR7 agonist	NPYLR7 agonist max-min
CN1C(=O)[C@H]2CN(C(=O)c3cc(COc4cccc(F)c4)[nH]n3)C[C@H]2C1=O	-3	5
CCc1nc2ccc(C(=O)NCCNC(C)=O)cn2c1N(C)CCC(C)C	-9	-12
CCSCC(=O)N1CCC(n2c(C)nc3cc(C(F)(F)F)ccc32)CC1	6	2

Some values from above.
Entry for COc1cccc(C=NC=Nc2cccc(OC)c2)c1 under NPYLR7 agonist: 9
Entry for CC1CC(C)CN(Cc2nc3c(c(=O)n(C)c(=O)n3C)n2CC(O)CO)C1 (stereo not drawn) under NPYLR7 agonist max-min: 7
Entry for Cc1oc2nc3c(c(=O)n(Cc4ccc(F)cc4)c(=O)n3C)n2c1C under NPYLR7 agonist: 1

Next entries:
SMILES	NPYLR7 agonist	NPYLR7 agonist max-min
Cc1ccc2nc(-c3cccc(Cl)c3)c(NC(=O)C3CCCC3)n2c1	7	11
Cc1c(Cl)c(CN2CCN(C(=O)C3CC3)CC2)nc2ccccc12	5	4
COc1cc(OC)nc(-n2nc3c(c2C(=O)N2CCOCC2)CCCC3)n1	-3	-2
O=C(O)c1cccc(S(=O)(=O)Nc2ccc(F)c(C(F)(F)F)c2)c1	12	9
CC12CCC(C/C1=N/NC(=O)COc1ccccc1-n1ccnc1)C2(C)C (stereo not drawn)	3	1
CC(C)c1ocnc1-c1nc(CC2CCN(C)CC2)no1	-1	-2
CC(C)N(CCN1CCOCC1)c1ccc(N2CCOCC2)cc1	0	-2
NNC(=O)CSc1nc2ccccc2s1	1	2
COc1ncc(CN2CCCC(CCc3ccccc3C(F)(F)F)C2)cn1 (stereo not drawn)	6	7
COc1cc2c(cc1OC)C(c1ccc(F)cc1)N(C(=O)c1c(-c3ccccc3)noc1C)CC2 (stereo not drawn)	4	3
O=C(NNC(=O)C1CCCN1S(=O)(=O)c1ccc(F)cc1)c1ccc(Cl)cc1 (stereo not drawn)	3	10
O=[N+]([O-])c1ccc2c(c1Nc1ccc(Br)cc1)=NC1(CCCCC1)N=2	-11	-15
COc1cccc(-n2c(SCC(=O)NCC3CCCO3)nc3c([nH]c4ccccc43)c2=O)c1 (stereo not drawn)	0	42
COc1ccc(-c2noc(Cn3ccn4nc(-c5ccccc5OC)cc4c3=O)n2)c(OC)c1	-1	-1
CC(C)CN(C(=O)c1ccc(Cl)c([N+](=O)[O-])c1)C1CCS(=O)(=O)C1 (stereo not drawn)	0	-1
CCOC(=O)CCCC(=O)Nc1sc(C(C)CC(C)(C)C)cc1C(=O)OCC (stereo not drawn)	6	6
CC1CN(S(=O)(=O)NC2CN(C)CC2C)C(C)CO1 (stereo not drawn)	4	2
O=C(Cn1cnc2ccccc21)N1CCCC(N2CCN(c3ccccc3F)CC2)C1 (stereo not drawn)	0	-5
Cc1ccccc1-c1onc(C)c1C(=O)NCCCN1CCOCC1	1	5
CN(CC1CCCN(CCc2ccc(Cl)cc2)C1)C(=O)c1cn(C)c2ccccc12 (stereo not drawn)	-5	-10
CCc1nc2ccc(C(=O)Nc3ccc4c(c3)CCN4C(C)=O)cn2c1N(CCC(C)C)CCN(C)C	-5	-10
O=C(NCCNC(=O)[C@H]1CCCN1C(=O)c1ccco1)c1ccccc1	8	5
Cc1ccc(-n2ncc3c(=O)n(NC(=O)CC4CCCC4)cnc32)cc1C	11	8
O=C(Cc1cccs1)N(Cc1cccnc1)c1nc2ccc(F)cc2s1	5	2
O=C(c1ccon1)N1CC2CCCCC2C1 (stereo not drawn)	22	12
SMILES	NPYLR7 agonist	NPYLR7 agonist max-min
Cc1nn(CC(=O)N2CCCc3ccccc32)c(=O)c2c1cnn2-c1ccc(F)cc1	7	4
Cc1nn(C)c(C)c1C(C)C(=O)Nc1cc(F)c(N(C)C)c(F)c1 (stereo not drawn)	-1	-3
CCOC(=O)c1ccc2c(c1)nc(SCc1cc(C(F)(F)F)cc(Cl)c1F)n2CCc1ccc(OC)cc1	7	1
O=C(CCC(=O)N1CCC2(CC1)OCc1cc(-c3ccccc3CO)ccc1O2)c1ccc(F)cc1	-26	-26
CO[C@H]1CN(C(=O)c2cccc(C#N)c2)[C@H]2Cc3c(oc4ccccc34)[C@@H]1C2	8	15
COc1ccc2c(c1)CC/C(=C\c1cc(Br)ccc1OC)C2=O	13	8
CCc1nnc(SC(CC)C(=O)NC2CCCC2)c2cc3oc(C)cc3n12 (stereo not drawn)	3	-1
O=C(CN(Cc1ccco1)S(=O)(=O)N1CCCCCC1)Nc1ccccc1	1	0
CN(C)c1nn(CC(O)c2cccc(F)c2)c(=S)s1 (stereo not drawn)	3	1
O=C1C(Nc2ccc(Br)cc2)=C(n2nnc3ccccc32)C(=O)c2ccccc21	3	-1
CCn1c(CC2CCNCC2)nn(CC2Cc3c(C)nc(C)nc3O2)c1=O (stereo not drawn)	1	-2
COc1ccc(CCNC(=O)CSc2nc3[nH]ncc3c(=O)[nH]2)cc1OC	0	3
O=S(=O)(Cc1cccc(F)c1)NC1(c2ccccc2)CC1	6	1
Cc1cc(C)nc(SCc2cc(=O)c(OC(=O)Cc3cccc4ccccc34)co2)n1	-9	-10
CCCN1C(=O)C(=Cc2c(N3CCN(CCO)CC3)nc3c(C)cccn3c2=O)SC1=S	12	12
CCn1cc(C(=O)NCCCOC(C)C)c2nn(-c3ccccc3)c(=O)c-2c1	2	1
Cc1ccc(C(=O)CSc2nnc(NC(=O)C3C[C@H]3c3ccccc3)s2)c(C)c1 (stereo partly drawn)	21	15

Random excerpt: five compounds from above
SMILES	NPYLR7 agonist	NPYLR7 agonist max-min
O=C(CN(Cc1ccco1)S(=O)(=O)N1CCCCCC1)Nc1ccccc1	1	0
CCCN1C(=O)C(=Cc2c(N3CCN(CCO)CC3)nc3c(C)cccn3c2=O)SC1=S	12	12
O=C(CCC(=O)N1CCC2(CC1)OCc1cc(-c3ccccc3CO)ccc1O2)c1ccc(F)cc1	-26	-26
CCn1cc(C(=O)NCCCOC(C)C)c2nn(-c3ccccc3)c(=O)c-2c1	2	1
CO[C@H]1CN(C(=O)c2cccc(C#N)c2)[C@H]2Cc3c(oc4ccccc34)[C@@H]1C2	8	15

These rows are one share of the data; count on the stated rates, not on these rows.
